# Screening data (PubChem BioAssay)
# Prx2 Sm inh = Schistosoma Mansoni Peroxiredoxins (Prx2); Schistosoma mansoni peroxiredoxin 2 (Prx2); S. mansoni Prx2 activity coupled to TGR/GSH (TGR is thioredoxin glutathione reductase), NADPH fluorescence loss, qHTS; some inactives read as strong as hits; Potency, µM; 65,000 tested, 0.07% active; active means full or partial inhibition curve with a strong effect at the top dose; inconclusive means weaker partial or single-point curve; inactive means no accepted curve; further: series up to 57 µM; many of its hits are not listed in these tables
#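 Coupled assay in which S. mansoni TGR passes NADPH reducing equivalents via glutathione to Prx2, which reduces H2O2. Compounds were preincubated 15 min at room temperature with 25 nM TGR/50 nM Prx2 mix. Kinetic NADPH fluorescence loss (ex 365/em 450 nm) was monitored.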
# Anthrax LT inh = qHTS Assay for Anthrax Lethal Toxin Internalization; Potency, µM (titrated, usually from 40 µM), for inactives: at the highest dose activity change, negative = inhibition, most hits filed as inhibitors; 70,000 tested, 0.67% active; Cells, anthrax lethal toxin internalization, FRET ratio (460/530); active = well fitted falling ratio curve with the 530 nm signal flat; inconclusive = other ratio curves, or a change in one channel alone; inactive = flat curves in the ratio and both channels; the % refers to the ratio; further: on the % scale 0 is the no-effect control and ±100 the full control effect; nearly all actives have a fitted effect of over 50% in size; tested in ME-180 cells; beta-lactamase reporter
# * = called active by the depositor; ? = inconclusive; . = no result given; & = joins results of further samples; [ ] = dose if it differs, or a comment. Potency means the concentration at half of the fitted maximal effect. Only part of the results is shown, so the mix of outcomes need not match the whole.
Molecule | Prx2 Sm inh | Anthrax LT inh
C/C(=C\c1ccco1)C1C(C#N)=C(N)OC2=C1C(=O)CC(C)(C)C2 (centres undefined) | >57 | 6.2%
O=C(CCN1C(=O)C2C3C=CC(C3)C2C1=O)N1CCN(c2ccc(F)cc2)CC1 (centres undefined) | >57 | 9.5%
COc1ccccc1N1CCN(C(=O)CCNS(=O)(=O)c2ccc(Br)s2)CC1 | >57 | -12.1%
CC(=O)NC(Cc1cnc[nH]1)C(=O)O (centres undefined) | . | -4.8%
O=C(O)CN(CCOCCOCCN(CC(=O)O)CC(=O)O)CC(=O)O | >57 | 1.8%
COC(=O)C(C)Oc1ccc(=O)[nH]n1 (centres undefined) | >57 | 11.5%
N#CCSc1nc2scc(-c3cccs3)c2c(=O)n1CCc1ccccc1 | >57 | -27.3%
Cc1ccc(CC2SC(=O)NC2=O)cc1Cl (centres undefined) | >57 | -10.8%
CCOc1ccc(-c2nnc3sc(COc4ccc(Cl)cc4)nn23)cc1 | >57 | -3.9%
CCOCCCNC(=O)C(NC(=O)c1cnccn1)c1ccc(OC)cc1 (centres undefined) | >57 | 11.6%
Nc1nc(CN2CCN(c3ccccn3)CC2)nc(Nc2ccc(F)cc2)n1 | >57 | ?
CCOc1ccc(C(N)=O)cc1OC | >57 | ?
c1cncc(-c2nc3ccccn3c2Nc2ccc3c(c2)OCCO3)c1 | >57 | 6.3%
COc1ccc(N2CCN(CCCNS(=O)(=O)c3ccc4c(c3)oc(=O)n4C)CC2)cc1 | >57 | 0.9%
CC1CCCCN1C(=O)CSc1ccc(-c2ccc(F)cc2)nn1 (centres undefined) | >57 | 0.3%
O=C(CCc1nc(-c2ccccc2F)no1)NC1CCN(Cc2ccccc2)CC1 | >57 | -10.4%
O=C1N[C@@]2(CN3CCC2CC3)C(=O)N1CN(Cc1ccccc1)c1ccccc1 | >57 | ?
CCN(CC)CCCN=C(C)c1c(O)n(-c2ccc(C)cc2)c(=O)[nH]c1=O | >57 | 8.8%
Cc1ccc(-c2csc3n[nH]c(=S)n23)cc1 | >57 | ?
CC(C)CCn1nc(C(=O)OC(C)C(=O)NC(N)=O)c2ccccc2c1=O (centres undefined) | >57 | 4.3%
NC[C@@H]1O[C@@H](O[C@H]2[C@@H](O)[C@H](O[C@@H]3[C@H](O)[C@H](N)C[C@H](N)[C@H]3O[C@@H]3O[C@@H](CO)[C@H](O)[C@H](O)[C@@H]3N)O[C@H]2CO)[C@H](N)[C@H](O)[C@@H]1O | >57 | -5.3%
COc1ccc(S(=O)(=O)N(CC(=O)N2CCN(c3ccccc3OC)CC2)c2ccccc2)cc1 | >57 | ?
Brc1cccc(-c2nc(-c3ccncc3)no2)c1 | >57 | ?
CN1CC(=O)N(CC(=O)Nc2ccc(N(C)C)cc2)c2ccccc2C1=O | >57 | -5.7%
CCOC(=O)C1CCCN(C(=O)c2cc3c(-c4cccc(OC)c4)nn(C)c3s2)C1 (centres undefined) | >57 | 0.4%
O=C(CCCCn1c(=O)c2ccccc2n(CC(=O)NC2CCCC2)c1=O)NCc1ccco1 | >57 | -1.5%
CCOC(=O)CSc1nc2ccccc2c(=O)n1CC1CCCO1 (centres undefined) | >57 | -26.2%
CCOC(=O)C1CCN(Cc2ccc(O)c(OC)c2)CC1 | . | 1.8%
CCS(=O)(=O)NCCc1csc(-c2cccnc2)n1 | >57 | 9.6%
CCN(CC)S(=O)(=O)c1ccc(F)cc1 | >57 | -2.9%
CCOC(=O)C(Cc1c[nH]c2ccccc12)NC(=O)CNC(C)=O (centres undefined) | >57 | -8.5%
CC(C)c1ccc(S(=O)(=O)N2CCN(CCC(=O)Nc3ccc(N(C)C)cc3)CC2)cc1 | >57 | 9.5%
CCCNC(=O)c1ccc(SC)cc1OC | . | -3.8%
CC[C@@H](C)[C@H](NC(=O)OC(C)(C)C)c1nnc(S(=O)(=O)Cc2cc(C)ccc2C)o1 | >57 | ?
COc1cc2c(cc1OC)CN(C(=O)C(C)(C)C)CC2 | >57 | 1.9%
Cc1ccccc1-c1ccc2ncnc(NC3CC3)c2c1 | >57 | -14.2%
Cc1ccc(NCc2nnc(SCC(=O)c3ccc4c(c3)OCCO4)o2)c(C)c1 | >57 | -12.8%
CCCC/C=C/C(NC(=O)C(C)(C)C)c1ccccc1 (centres undefined) | >57 | -16.7%
Cc1ccc2c(c1)C1CN(C)CCC1N2C(=O)COc1ccc(S(=O)(=O)N2CCOCC2)cc1 (centres undefined) | >57 | 11.5%
CCc1nc(N)nc(N)c1-c1ccc(Cl)cc1 | >57 | 6.1%
Cc1cc(C)n(CCO)c(=O)n1 | >57 | 2.3%
COCCn1nnnc1C1(N(Cc2cc3cc(C)ccc3[nH]c2=O)CC2CCCO2)CCN(C)CC1 (centres undefined) | >57 | -2.7%
O=c1[nH]c2ccccc2n1CCCSCCCn1c(=O)[nH]c2ccccc21 | >57 | ?
Nc1ncnc2nc(N3CCN(C(=O)c4ccccc4)CC3)[nH]c12 | >57 | -5.3%
CCc1ccc(C2CC(c3ccccc3)Nc3nc(N)nn32)cc1 (centres undefined) | >57 | -5.3%

# At a glance, part of the list above:
Molecule | Prx2 Sm inh | Anthrax LT inh
CCCC/C=C/C(NC(=O)C(C)(C)C)c1ccccc1 (centres undefined) | >57 | -16.7%
Cc1ccc2c(c1)C1CN(C)CCC1N2C(=O)COc1ccc(S(=O)(=O)N2CCOCC2)cc1 (centres undefined) | >57 | 11.5%
CCc1nc(N)nc(N)c1-c1ccc(Cl)cc1 | >57 | 6.1%
Cc1cc(C)n(CCO)c(=O)n1 | >57 | 2.3%
COCCn1nnnc1C1(N(Cc2cc3cc(C)ccc3[nH]c2=O)CC2CCCO2)CCN(C)CC1 (centres undefined) | >57 | -2.7%

# Next section:
Molecule | Prx2 Sm inh | Anthrax LT inh
O=C(C1CCCN(S(=O)(=O)c2cccc3nsnc23)C1)N1CCN(c2ccccn2)CC1 (centres undefined) | >57 | 4.0%
COCc1cc(C)nc2sc(C(=O)OC)c(N)c12 | >57 | .
CCOC(=O)N1C(=O)c2cc(OC)ccc2S1(=O)=O | >57 | 1.9%
COc1cccc(NC(=O)C(C)Oc2ccccc2)c1 (centres undefined) | . | -16.1%
Cc1c(C(=O)N(C)Cc2ccccc2)oc2ccc(S(=O)(=O)N3CCCC3)cc12 | >57 | -14.0%
COc1ccc(-c2nnc(SC(C)C(=O)Nc3nccs3)n2-c2ccccc2)cc1OC (centres undefined) | >57 | .
CSc1ccccc1NC(=O)Nc1ccccc1 | >57 | .
COc1cccc(NS(=O)(=O)c2cc(C)ccc2OC)c1 | >57 | 6.0%
Cc1ccc(-c2nnc3c4ccccc4c(C)nn23)cc1S(=O)(=O)N1CCN(C)CC1 | >57 | -16.7%
Cc1ccc(CN2C3=NCCCN3c3ccccc32)cc1 | >57 | 17.5%
COc1ccccc1NC(=O)c1c(NC(=O)c2ccco2)sc2c1CCC2 | . | -12.4%
O=C(O)[C@@H]1CSC2(CCSC2)N1 (some centres undefined) | >57 | 7.0%
CC(=O)Nc1ccc(Cl)cc1C(=O)O | >57 | -11.4%
CC(OC(=O)CNC(=O)C12CC3CC(CC(C3)C1)C2)C(=O)Nc1ccc(N2CCOCC2)cc1 (centres undefined) | >57 | -0.3%
Cc1nn(-c2ccc(F)cc2)c2sc(C(=O)OCC(=O)N3CCC(C)CC3)cc12 | >57 | -7.6%
CCN(CCCNC(=O)CCNC(=O)Cn1cnc2ccccc2c1=O)c1cccc(C)c1 | >57 | -3.2%
C/C=C/c1ccc(OC)c(OC(C)=O)c1 | >57 | -6.7%
CC(=O)N1c2ccccc2NC2=C(C(=O)CCC2)C1c1cccnc1 (centres undefined) | >57 | ?
CCn1c(-c2ccc(F)cc2)n[nH]c1=S | >57 | ?
CCOC(=O)C1CCCN(C(=O)c2ccc(CNc3c(N4CCC(C)CC4)c(=O)c3=O)cc2)C1 (centres undefined) | >57 | ?
CCOC(=O)c1[nH]c2ccc(OC)cc2c1NC(=O)OC | >57 | -19.2%
COC(=O)c1sc(NC(=O)COc2ccccc2OC)nc1C | >57 | ?
CCc1ccc(Nc2nc(N)nc(CSc3nnnn3-c3ccccc3)n2)cc1 | >57 | 2.9%
O=c1c(CCc2ccccc2)nc2cnc(N3CCOCC3)nc2n1C[C@H]1CCCO1 | >57 | ?
CCOC(=O)c1ccccc1NC1OC(=O)c2ccccc21 (centres undefined) | >57 | -4.4%
CC(C)CC(=O)Nc1ccc(OCC(=O)O)cc1 | >57 | 2.3%
Nc1nc(Cn2nnc(-c3ccccc3Cl)n2)nc(N2CCOCC2)n1 | >57 | 10.4%
COC(=O)[C@@H]1CC[C@H](C)[C@@H](c2ccc(C)cc2)N1C(=O)c1ccc(/C=N\OC[C@@H](C)[C@H](OCc2ccccc2)C(C)C)cc1 | . | -0.3%[8 µM]
CCCC(=O)Nc1nc2ccc(OCC)cc2s1 | >57 | -12.8%
COC(=O)c1[nH]c2ccccc2c1NC(=O)Oc1ccccc1 | >57 | .

# Compound profiles, as listed above. Order of values: Prx2 Sm inh, Anthrax LT inh
# `CC(C)c1ccc(S(=O)(=O)N2CCN(CCC(=O)Nc3ccc(N(C)C)cc3)CC2)cc1` as listed: >57, 9.5%
# `O=C(O)[C@@H]1CSC2(CCSC2)N1` (some centres undefined) as listed: >57, 7.0%

# Next section:
canonical_smiles | Prx2 Sm inh | Anthrax LT inh
CC(C)CN1CCCC2(CCN(C(=O)c3cc(C(F)(F)F)cc(C(F)(F)F)c3)CC2)C1 | >57 | 1.5%
CC1CN(c2nnnn2-c2ccccc2)CC(C)O1 (centres undefined) | . | -1.2%
CCOCCCNC(=O)C(NC(=O)c1ccc2c(c1)OCO2)c1ccc(OC)cc1 (centres undefined) | >57 | 10.7%
CN(C)c1ncc2nc(-c3cccc(C#N)c3)c(=O)n(C[C@H]3CCCO3)c2n1 | >57 | ?
O=C(Cn1[nH]c(=O)c2ccccc2c1=O)NC1CCN(Cc2ccccc2)CC1 | >57 | -27.8%
CCOC(=O)CCCNS(=O)(=O)c1c(C)ccc2nsnc12 | >57 | -0.2%
Cc1ccc(S(=O)(=O)N(c2ccccc2)C2CCS(=O)(=O)C2)cc1 (centres undefined) | >57 | 2.6%
C(#Cc1ccc(C#CCN2CCOCC2)cc1)CN1CCOCC1 | . | -2.5%
Cc1cccc(OCC(=O)N2CCN(C(=O)c3cccs3)CC2)c1 | >57 | 5.5%
N#Cc1ccc2ccn(CC(=O)NC3CCCCCC3)c2c1 | >57 | -6.6%
CC(C)(C)NC(=O)NC(=O)COC(=O)c1ccco1 | >57 | -2.6%
CCC(C)N(CC(=O)NCc1ccc(OC)cc1)C(=O)c1csnn1 (centres undefined) | >57 | ?
COc1cc2cc(C(c3nnnn3C3CCCC3)N3CCc4ccccc43)c(=O)[nH]c2cc1OC (centres undefined) | >57 | ?
COc1cccc(OCC(=O)N(Cc2nc(-c3ccc(Cl)cc3)no2)C(C)C)c1 | >57 | ?
O=S(=O)(NCc1ccco1)c1cccc(S(=O)(=O)N2CCOCC2)c1 | >57 | 3.2%
COc1ccc(NC(=O)N2CC[C@@]3(CCCN(C(C)=O)C3)C2)cc1 | >57 | -3.4%
CCc1ccc(S(=O)(=O)NCc2cn3ccccc3n2)s1 | >57 | 2.2%
Cc1ccc(NC(=O)CCN2C(=O)c3ccncc3C2=O)cc1 | >57 | 8.6%
c1ccc2c(CC3NCCN3)cccc2c1 | >57 | -1.8%[8 µM]
CN=C1SC(CC(=O)Nc2cccc(C(F)(F)F)c2)C(=O)N1C (centres undefined) | >57 | -0.2%
Cc1csc2nc(CNC(=O)CCC(=O)O)cn12 | >57 | 3.1%
O=C(c1ccncc1)N1CCC2(CC1)CCN(c1ccc(-c3ccccc3)cc1)CC2 | >57 | -4.9%
CC(C)OC(=O)CSc1nc2ncc(Cl)cc2[nH]1 | >57 | 9.0%
COCCCNC(=O)CN1C(=O)c2ccccc2C1=O | >57 | -3.0%
CCc1c(C)nc2ncnn2c1N1CCCC(C(=O)NCc2ccc3c(c2)OCO3)C1 (centres undefined) | >57 | -12.2%
CCCNS(=O)(=O)c1ccc(CCC(=O)NCc2ccc3c(c2)OCO3)cc1 | >57 | 9.2%
Cc1cc(N)ccc1NC(=O)c1ccccc1 | >57 | -7.0%
O=C(CCCCCn1c(=S)[nH]c2cc3c(cc2c1=O)OCO3)N1CCN(C2CCCCC2)CC1 | >57 | ?
Nc1nc(SCc2ccccc2)ns1 | >57 | ?
O=S(=O)(NCCN1CCCC1)c1cccc2cccnc12 | >57 | -19.3%
CN(C)CCCNC(=O)c1ccc2[nH]c3ccccc3c2c1 | >57 | -12.1%
COc1cccc(C(=O)N2CCN(Cc3ccc4c(c3)OCO4)CC2)c1OC | . | 13.1%
COC(=O)CCC(=O)COc1ccc(OC)cc1C#N | >57 | -23.7%
Cc1cnc(CNc2cc(-c3ccccc3C(F)(F)F)ncn2)cn1 | >57 | -2.2%
COc1ccccc1NC(=O)CN1CCN(CC(=O)Nc2ccc(F)cc2)CC1 | >57 | -7.5%
Cc1ccccc1OC1C=CC(c2ccccc2)OC1CO (centres undefined) | . | -11.1%[8 µM]
Cc1ccccc1Cn1c(C(C)O)nc2ccccc21 (centres undefined) | >57 | -0.2%
Cc1ccc(CC2CC(=O)N(c3ccc(Cl)cn3)C2=O)cc1 (centres undefined) | >57 | 0.0%
COc1ccc(N(CC(=O)N2CCN(c3ccccc3)CC2)S(=O)(=O)c2c(C)noc2C)cc1 | >57 | ?
CCCCNC(=O)NS(=O)(=O)c1ccc(C)cc1 | >57&>57 | ?
